Vaccinia mCherry: qHTS for Stage-Specific Inhibitors of Vaccinia Orthopoxvirus: mCherry Reporter Primary qHTS | 0.63% of 310,000 active | Vaccinia virus mCherry reporter infection, fluorescence; about a quarter of the inactives have no number | Potency, µM (highest dose often 36.5 µM), without a hit: at the highest dose activity change, negative = inhibition, most hits filed as inhibitors; active = well fitted inhibition curve with a large enough effect; inconclusive = small, poorly fitted or top-dose-only effect; inactive = no such curve, though single readings can be large or run the other way; tested in A549 cells; note: nearly all actives have a fitted effect of over 35% in size; inactives centre near -10
Vaccinia Venus: qHTS for Stage-Specific Inhibitors of Vaccinia Orthopoxvirus: Venus Reporter Primary qHTS; Vaccinia virus Venus reporter expression, fluorescence; Potency, µM (highest dose often 36.5 µM), for inactives: at the highest dose activity change, negative = inhibition, usual class: inhibitors; 0.46% of 330,000 active; AID 720580, 2013; active means well fitted inhibition curve with a large enough effect; inconclusive means small, poorly fitted or top-dose-only effect; inactive means no such curve, though single readings can be large or run the other way; tested in A549 cells; note: nearly all actives have a fitted effect of over 30% in size; inactives centre near -10
An asterisk follows results filed as active; i = inactive; ? = inconclusive; nt = no result given; & = joins results of further samples; [ ] = another dose, or the depositor's remark. % is set by controls: 0 for no effect and ±100 for the full control effect; potency is the fitted concentration of half-maximal effect.

Values run as follows: Vaccinia Venus, Vaccinia mCherry
- Cc1nc(NC(=O)c2ccc(Cl)cc2)sc1Cc1ccc2c(c1)OCO2
  ?, -15%
- Nc1ncnc2c1ncn2[C@@H]1O[C@H](CCC(=O)NCc2ccccc2)[C@@H](O)[C@H]1O
  -3%, -12%
- CN1CCN(C(=O)CSc2nc3c(c(=O)n(C)c(=O)n3C)n2C)CC1
  0%, -8%
- CN(C(=O)COC(=O)c1cccc(S(=O)(=O)N2CCCCC2)c1)C1CCS(=O)(=O)C1 (configuration not stated)
  2%, 0%
- Nc1cc(=O)[nH]c(SCC(=O)Nc2cccc(Cl)c2Cl)n1
  -3%, i
- O=S(=O)(c1ccc2ncn(O)c2c1)N1CCOCC1
  -15%, i
- CCCCN(Cc1ccccc1)C(=O)CN(C)S(=O)(=O)c1ccc2c(c1)c(=O)n(C)c(=O)n2C
  -17%, -21%
- NC(=O)C1CCN(C(=O)CCSc2ccccc2)CC1
  -4%, -12%
- COc1ccccc1OCC(=O)NC1CCCCCC1
  -21%, -14%
- O=C(NCCSc1ccccc1)c1ccccc1
  -2%, i
- Cc1[nH]c2ccccc2c1C(C#N)(C#N)C1C(=O)c2ccccc2C1=O
  13%[7.34 µM], -27%[7.34 µM]
- CCOC(=O)C(=O)Nc1ccc(OCc2ccccc2)cc1
  29%, i
- O=C(CSc1nncs1)N1CCN(S(=O)(=O)c2ccccc2)CC1
  -8%, -13%
- CCc1ccccc1N1CC(c2nc3ccccc3n2CCC2CCCCC2)CC1=O (configuration not stated)
  ?, i
- COc1ccc(F)cc1S(=O)(=O)Nc1cc2c3c(c1)CC(=O)N3CCC2
  -16%, -22%
- Cc1ccc(S(=O)(=O)Nc2cccc(CP(=O)(c3ccccc3)c3ccccc3)c2)cc1
  -19%, -27%
- Cc1ccc2c(c1)c1c(n2CC(O)CNC(C)(C)C)CCCC1 (configuration not stated)
  -4%, i
- CCCc1cc(=O)[nH]c(SCC(=O)Nc2ccc(OC(F)F)cc2)n1
  -5%, -10%
- CC1=NN(c2ccccc2)C(=O)/C1=C/c1cc(C)n(C2CC2)c1C
  -11%, -10%
- Cc1c(Cl)cccc1-c1ccc(CNCCSc2nnnn2-c2ccccc2)o1
  -4%, -9%

Compound profiles (already shown).
CCOC(=O)C(=O)Nc1ccc(OCc2ccccc2)cc1 is listed with Vaccinia Venus = 29%; Vaccinia mCherry = i
Cc1c(Cl)cccc1-c1ccc(CNCCSc2nnnn2-c2ccccc2)o1 is listed with Vaccinia Venus = -4%; Vaccinia mCherry = -9%
Cc1ccc(S(=O)(=O)Nc2cccc(CP(=O)(c3ccccc3)c3ccccc3)c2)cc1 is listed with Vaccinia Venus = -19%; Vaccinia mCherry = -27%

Continuation.
Values run as follows: Vaccinia Venus, Vaccinia mCherry
- COC(=O)c1c(NC(=O)COC(=O)CCS(=O)(=O)c2ccc(C)cc2)sc(C)c1C
  -4%, i
- COc1ccc(Cc2noc(CN3CCCN(C4Cc5ccccc5C4)CC3)n2)cc1OC
  -3%, i
- COc1ccc2c3c([nH]c2c1)C(C)NCC3 (configuration not stated)
  10%, 2%
- O=C(CCl)N1N=C(c2cccs2)CC1c1ccco1 (configuration not stated)
  -21%, ?
- O=C(Nc1ccccc1)C1CCN(C(=O)c2ccc([N+](=O)[O-])cc2)CC1
  -11%, i
- CCOC(=O)[C@]12CCCC=C1N(CCC1=CCCCC1)C(=O)[C@H](CC(=O)NCc1ccc(C)o1)C2
  ?, ?
- Cc1ccc(S(=O)(=O)N(Cc2ccccc2)c2ccccc2C(=O)NCc2ccco2)cc1
  -19%, -12%
- CC(C)n1c(CNC(=O)c2ccccc2)nc2ccccc21
  -18%, -20%
- Cc1snc(S(=O)(=O)/C(C#N)=N\Nc2ccccc2)c1C#N
  -9%, -15%
- NC(=O)C1CCN(c2cc(Cl)ccc2[N+](=O)[O-])CC1
  -9%, -4%

Three of the compounds above, in CSV form.
smiles,Vaccinia Venus,Vaccinia mCherry
Cc1ccc(S(=O)(=O)Nc2cccc(CP(=O)(c3ccccc3)c3ccccc3)c2)cc1,-19%,-27%
Cc1ccc2c(c1)c1c(n2CC(O)CNC(C)(C)C)CCCC1 (configuration not stated),-4%,i
CCCc1cc(=O)[nH]c(SCC(=O)Nc2ccc(OC(F)F)cc2)n1,-5%,-10%

Next entries:
Values run as follows: Vaccinia Venus, Vaccinia mCherry
- CCCCCC1CC(CC(=O)NC(=S)Nc2ccc([N+](=O)[O-])cc2)C(=O)O1 (configuration not stated)
  -16%, -21%
- COc1ccc(Cn2c(CCC(=O)Nc3ccc(C)c(C)c3)nc3cccnc32)cc1
  -20%, -22%
- O=c1c2cc(-c3ccccc3)sc2ncn1-n1cccc1
  -21%, -17%
- CCCC(=O)Nc1sc2c(c1C#N)CCCC2
  -9%, nt
- Cc1cccc(NC(=O)c2ccc(S(=O)(=O)N3CCN(C)CC3)cc2)c1C
  -2%, 10%
- COc1ccc(OC)c(S(=O)(=O)NC(=O)C2(C)CCN2C(=O)c2ccco2)c1 (configuration not stated)
  2%, 13%
- CCOC(=O)CC(=O)CSc1nc2c(sc(=S)n2-c2ccc(OCC)cc2)c(=O)[nH]1
  -20%, -24%
- COc1ccc(OC)c(NC(=O)CCN2CCN(c3ccccc3)CC2)c1
  -11%, -21%
- CCOc1cc(/C=C/C(=O)c2ccc(O)cc2)ccc1OCC(=O)N(C)C
  ?, ?
- O=C(Cn1c(=O)sc2ccccc21)N1CCOCC1
  -8%, -6%
- O=C1CC(c2ccccc2)Sc2nc(-c3ccccc3)c(-c3ccccc3)n21 (configuration not stated)
  -7%, -19%
- CC(NS(=O)(=O)/C=C/c1ccccc1)c1ccccc1 (configuration not stated)
  -7%, i
- C=CCn1c(N)cc(=O)nc1SCC(=O)Nc1cccc2ccccc12
  -26%, ?
- CN1CCN(C(=O)C2=C[C@@H](C3CC3)C[C@@H](OCc3ccc(CO)cc3)O2)CC1
  -18%, i
- O=C(CSc1ccccc1)Nc1ccc(N2CCOCC2)cc1
  -4%, -12%
- CCN(CC)C(=O)Cn1cc(S(=O)(=O)CC(=O)Nc2ccc(OC)c(OC)c2)c2ccccc21
  -4%, -10%
- COc1ccc(CC(=O)N2CCOCC2)cc1OC
  0%, nt
- COc1ccc(CCC(=O)N2CCN(S(=O)(=O)c3ccc(OC(F)(F)F)cc3)CC2)cc1
  1%, -7%
- O=S(=O)(c1ccc(OCC(O)CN2CCN(c3ccccc3O)CC2)cc1)N1CCOCC1 (configuration not stated)
  -16%, -7%
- Cc1ccc2occ(CN3CCOc4ccc(C(C)(O)COc5ccccc5)cc4C3)c(=O)c2c1 (configuration not stated)
  3%, -20%
- CCN=c1scc(-c2ccc(F)cc2)n1/N=C/c1ccccn1
  -8%, -7%
- O=C(O)C1CCCN1C(=O)C1CCN(S(=O)(=O)c2cccc(C(F)(F)F)c2)CC1 (configuration not stated)
  -15%, -18%
- CCNCCNC(=O)c1c(O)c2ccccc2n(CC)c1=O
  -6%, -16%
- COc1ccc(CCN2C(=NC(=O)CC(C)C)SC3CS(=O)(=O)CC32)cc1 (configuration not stated)
  -12%, i
- Cc1ccc(OCC(=O)Nc2ccc3nn(-c4ccc(C)cc4)nc3c2)cc1
  9%, -4%
- C=CCn1c(O)c(C(CC)=Nc2cccc(C(F)(F)F)c2)c(=O)[nH]c1=O
  -5%, -6%
- O=C(COC(=O)/C=C/c1ccccc1Cl)NCCc1ccc(Cl)cc1Cl
  1%, -11%
- CCOC(=O)C1CCN(c2c(NCCN3CCN(c4ccccc4)CC3)c(=O)c2=O)CC1
  2%, -3%
- CN(CCNC(=O)C1CCN(c2ncnc3c2nc2n3CCCCC2)CC1)Cc1ccccc1
  ?, -22%
- Cc1nn(-c2ccc(N3CCCC3)nn2)c(C)c1CCC(=O)NCc1ccccc1
  -7%, 4%
- CCCCC(O)(CCCC)C(=O)NNc1ccccc1
  -20%, -21%
- O=C1NCN(c2ccccc2)C12CCN(CC1COc3ccccc3O1)CC2 (configuration not stated)
  -10%, -13%
- CCOc1ccc(C(=O)Nc2ccc(Cl)cn2)cc1Cl
  -3%, -11%
- OC(c1cccs1)(c1cccs1)C1C[N+]2(CF)CCC1CC2 (configuration not stated)
  -6%, -7%
- CC1(C)CC(=O)C(Br)=C(O)C1
  -8%, -2%
- CCCCNC(=O)c1ccc2c(c1)N(CC)C(=O)c1ccccc1S2(=O)=O
  1%, 36%[activator]
- COC(=O)[C@@H]1C[C@@]2(O)[C@H](O)[C@H](O)[C@H](O)C[C@H]2N1CC(c1ccccc1)c1ccccc1
  -6%, -15%
- CCC(=O)Nc1cccc(NC(=O)CSc2nnc(-c3ccc(NS(C)(=O)=O)cc3)n2C)c1
  -9%, -10%
- CCOC(=O)C(=NC(C)CC)NNc1cccc(C(F)(F)F)c1 (configuration not stated)
  -12%, -17%
- COc1ccc(C(=O)COC(=O)C2CCN(c3ccc(C(F)(F)F)cn3)CC2)c(OC)c1
  -11%, -12%
- Cc1cccn2c(=O)c3cc(C(=O)NCCc4ccccc4)sc3nc12
  -5%, 7%
- COc1ccc2c(c1)[nH]c1c(N3CCSCC3)ncnc12
  -25%, ?
- COc1ccc(OC)c(CNC(=O)c2cc(=O)[nH]c3ccc(S(=O)(=O)N4CCCCC4C)cc23)c1 (configuration not stated)
  -9%, -13%
- COC(=O)CNC(=O)C(Cc1ccccc1)NS(=O)(=O)c1ccc2c(c1)c(=O)n(C)c(=O)n2C (configuration not stated)
  -8%&4%, -12%
- COc1ccc(CCNC(=O)c2ccc3c(c2)CCN3S(=O)(=O)c2ccc(Cl)cc2)cc1
  -23%, -23%
- CN(C)CCN(C(=O)c1cccc(N2C(=O)CCC2=O)c1)c1nc2ccc(Br)cc2s1
  -18%, -8%
- O=C(COC(=O)c1ccc(Cl)nc1)Nc1cc(S(=O)(=O)N2CCCCC2)ccc1Cl
  -6%, 5%
- O=C(c1cc(F)c(F)cc1Cl)N1CCN(S(=O)(=O)c2cccs2)CC1
  -8%, -20%
- Cc1nc(-c2ccc(Cl)cc2)sc1CCNC(=O)C(=O)Nc1ccc2c(c1)OCCO2
  -17%, -25%
- Cc1cc(C)n(-c2nc3ccccc3nc2Nc2cc(Cl)ccc2C)n1
  -10%, i

(listing goes on)
Values run as follows: Vaccinia Venus, Vaccinia mCherry
- CCOC(=O)C1=C(C)NC(C)=C(C(=O)OCC)C1C(=O)OCC(N)=O
  1%, -9%
- Oc1ccccc1-c1cc(-c2ccccc2)no1
  -8%, nt
- CC(C)Cc1nc(N2CCCCC2)c(C#N)c2c1CCC2
  -1%, 2%
- CCC(C)N(C(=O)CSc1ncnc2c1cnn2-c1ccccc1)C1CCS(=O)(=O)C1 (configuration not stated)
  -11%, -1%
- CC(=O)Nc1ccc(S(=O)(=O)Nc2cc([N+](=O)[O-])ccc2C)cc1
  -10%, -14%
- Cc1ccc(S(=O)(=O)CCC(=O)OCC(=O)N(C)C2CCS(=O)(=O)C2)cc1 (configuration not stated)
  -12%, -26%
- Cc1ccc(C)c(N2CCN(Cc3csc(C)c3)CC2)c1
  -23%, -19%
- Cc1ccsc1C(=O)NNC(=O)C1CC=CCC1C(=O)O (configuration not stated)
  2%, -15%
- CCOC(=O)c1cc(-c2ccccc2)n(CC(=O)Nc2cc(OC)cc(OC)c2)c1C
  -17%, -9%
- Cc1cc(C(=O)Nc2ccccc2C)on1
  -7%, -10%
- CN(C)CCCN(C(=O)CCc1ccccc1)c1nc2ccc(Cl)cc2s1
  -26%, ?
- CCOc1cc(CNC(=O)C(NS(=O)(=O)c2cccs2)C(C)C)cc(OCC)c1OCC (configuration not stated)
  -6%, -11%
- CCN(C(=O)CSc1ncccc1C(=O)OC(C)C)c1cccc(C)c1
  -17%, -7%
- CC(=O)N1CCCc2cc(S(=O)(=O)N3CCCC(C(=O)N4CCN(c5cc(C)ccc5C)CC4)C3)ccc21 (configuration not stated)
  -18%&-18%, -16%&-30%
- CN1COc2ccc3ccccc3c2C1
  -11%, -9%
- CCN(CC)C(=O)CSc1ncccc1-c1nc2ccccc2[nH]1
  -14%, -13%
- C[C@H]1CN([C@@H](C)CO)C(=O)CCCn2nncc2CO[C@@H]1CN(C)Cc1ccc(C(=O)O)cc1
  3%, i
- O=c1[nH]c(CN2CCN(S(=O)(=O)c3ccc4ccccc4c3)CC2)nc2ccccc12
  -16%, -11%
- O=C1C2C3CCCC3=C3CCCC3C2C(=O)N1c1ccc(F)cc1 (configuration not stated)
  -13%&-6%, -8%
- Nc1c(Cl)cc2c(c1Oc1ccccc1)C(=O)c1ccccc1C2=O
  -14%, i
- Cc1ccc(N2CC(NC(=O)N3CCN(C(=O)c4ccco4)CC3)CC2=O)cc1 (configuration not stated)
  -13%, i
- O=C(NCc1nnc2n1CCN(Cc1cc3c(cc1Cl)OCO3)CC2)c1cccc(F)c1
  -24%, -6%
- Cc1ccc2nc(COc3cccc(NC(=O)COc4ccccc4F)c3)cc(=O)n2c1
  -9%, -20%
- CCOc1ccc(-c2c(C)nn3c(C)c(C(=O)NCCc4ccccc4)cnc23)cc1OCC
  -5%, -10%
- O=C(NCc1ccc2c(c1)OCO2)c1ccc(Br)o1
  -5%, -1%

Source: PubChem BioAssay (National Center for Advancing Translational Sciences (NCATS))
